HIV Env fusion – inhibitors of HIV Env-mediated cell fusion. inhibition, % at 12.3 µM. HeLa-JRFL Env/CEM21 cell fusion, luciferase. 360,000 compounds, 1.1% hits. AID 651610;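 active means mean replicate inhibition score of at least 50 and every replicate individually at or above 50; inconclusive means only one of the two criteria met; inactive means mean below 50 and not all replicates reaching 50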;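 further: 0% = plate neutral controls and 100% = maraviroc near 300 nM; one replicate is shown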
PABP FP inh – blocks human PABP binding to poly(A) RNA. inhibition, % at 35 µM. fluorescence polarization. 290,000 compounds, 1% hits. P11940;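 active means 50% or more with normal probe brightness, or confirmed in later tests; inconclusive means above 50% with abnormal brightness, or retests that disagree; inactive means below 50% or failed in later tests; about a fifth of its hits are not listed in these tables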;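 further: calls also rest on retests at 20 µM and on dose response follow-up; controls were probe without protein and protein plus probe with vehicle; some compounds called inactive have numbers as strong as hits; many hits fall short of the cut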
Yeast UUG start – modulators of start codon recognition fidelity in yeast; AID 602363; activity score, % at 18.7 µM; S. cerevisiae UUG-firefly luciferase reporter, luminescence/redox ratio; 350,000 compounds, 0.13% hits;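 active means replicate mean at a twofold rise or more, about +100% in these data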;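 further: firefly luciferase made from a UUG start codon reports start codon fidelity; reporter light over untreated wells divided by growth signal over untreated wells; some hits fall short of that in this replicate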
MT1-MMP act inh – blocks activation of human MT1-MMP. HT1080 RFP-PRO-GFP cells, GFP/RFP ratio fluorescence, overnight; percent of plate control window, DMSO zero. AID 651647. GFP/RFP ratio change, % at 20 µM. 360,000 compounds, 0.061% hits. P50281;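 active means GFP/RFP ratio change of at least 30% with cell ATP level not reduced by more than half and red fluorescence within 50% of control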; further: strong numbers were not always called active
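Test system: HT1080 RFP-PRO-GFP cells; Benchmarks: DMSO and RFP-L50D-GFP cell wells; Timing: cells overnight before dosing, compound overnight, 37 °C, 5% CO2; Compound: one 20 µM compound dose with 1% DMSO; Read-out: GFP/RFP fluorescence ratio.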
CSC inhib – blocks cancer stem cells; inhibition, % at 7.5 µM; AID 2717; cancer stem cell-like cells viability, luminescence; 300,000 compounds, 1.1% hits;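 active means mean at 75% or more and at least half the replicates too; inconclusive means mean and replicates disagree; tested in HMLE shEcad cells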;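 further: 0% = median of negative and 100% = median of positive control wells; the first replicate is given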
eIF4H FP inh – inhibitors of RNA binding by human eIF4H; Q15056; eIF4H fluorescence polarization binding assay; inhibition, % at 35 µM; 290,000 compounds, 0.94% hits;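 active means 50% or more with normal probe brightness, or confirmed in later tests; inconclusive means above 50% with abnormal brightness, or retests that disagree; inactive means below 50% or failed in later tests; about a fifth of its hits are not listed in these tables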;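 further: calls also rest on retests at 20 µM and on dose response follow-up; 0% = protein and probe with vehicle and 100% = probe without protein; strong numbers were not always called active; many hits fall short of the cut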
Rce1 inh – inhibitors of yeast Ras-converting enzyme; 290,000 compounds, 0.27% hits; Q03530; calls only; yeast membranes, quenched prenylated peptide cleavage fluorescence;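 active means fall in fluorescence gain of 50% or more versus controls, with final raw signal at or below 3038400; inconclusive means same 50% fall but final raw signal above 3038400; inactive means fall in fluorescence gain under 50%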;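 further: plate controls were neutral control wells for no effect and wells lacking membranes for full effect; tested at 10 µM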
Target sequence (Q03530 whole entry, looked up): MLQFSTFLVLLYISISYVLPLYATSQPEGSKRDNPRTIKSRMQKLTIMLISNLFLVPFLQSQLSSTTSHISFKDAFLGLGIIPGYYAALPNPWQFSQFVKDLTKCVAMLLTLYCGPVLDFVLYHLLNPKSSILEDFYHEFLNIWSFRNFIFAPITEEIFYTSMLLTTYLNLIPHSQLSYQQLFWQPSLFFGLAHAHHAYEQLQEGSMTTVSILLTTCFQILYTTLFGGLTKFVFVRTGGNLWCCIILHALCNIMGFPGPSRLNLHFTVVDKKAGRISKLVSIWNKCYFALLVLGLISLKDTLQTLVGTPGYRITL
MT1-MMP act inh RFP – recorded beside MT1-MMP act inh, whose call it bears; RFP signal change, %; measured here: RFP expression control read;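 0 = vehicle wells; hits needed this value within 50% of zero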
Numbers without * were called inactive; i = inactive; ? = inconclusive; nt = not tested or not shown. Not all compounds are listed. The share of hits here may be higher or lower than overall.

SMILES | HIV Env fusion | PABP FP inh | Yeast UUG start | MT1-MMP act inh | MT1-MMP act inh RFP | CSC inhib | eIF4H FP inh | Rce1 inh
CCCS(=O)(=O)NC(=O)C1(C)CCN(C(=O)COCc2ccccc2)C1 (stereo not drawn) | 9.9 | nt | -39.6 | -0.8 | 3.1 | nt | nt | nt
CCc1ccc(N2CC(C(=O)NC3CC3)CC2=O)cc1 (stereo not drawn) | 12.5 | 1.3 | -10.6 | 0.3 | 2.6 | 7.4 | -12.2 | nt
Cc1cc(C(=O)Nc2nnc(C(F)(F)F)s2)cs1 | 5.4 | -0.7 | 9.2 | -3.0 | -19.8 | 8.1 | 4.3 | i
COc1ccc(C2=NN(C(=O)CCC(=O)O)C(c3ccccc3)C2)cc1 (stereo not drawn) | -11.4 | 2.9 | -18.7 | -0.1 | 2.3 | nt | 3.5 | i
CC(=O)Nc1nnc(SCC(=O)N2CCc3ccccc32)s1 | -119.6 | -5.0 | -5.9 | 5.1 | 4.2 | 6.7 | -9.4 | i
Cc1ccc2nc(N(CCN(C)C)C(=O)c3cc(Cl)sc3Cl)sc2c1 | -10.9 | 4.1 | -13.1 | 2.9 | 0.6 | nt | -1.0 | i
O=C(NCCc1ccc(F)cc1)c1cc([N+](=O)[O-])ccc1N1CCOCC1 | -15.9 | nt | 22.4 | 2.2 | 5.0 | 3.0 | nt | nt
CCCCCN(C(=O)CCC(=O)OCC(=O)N1CCCC(C)C1)c1c(N)n(CCCC)c(=O)[nH]c1=O (stereo not drawn) | -24.6 | 1.0 | -14.4 | 0.1 | 2.9 | -9.6 | -2.5 | i
Cn1c(Cc2ccccc2)nnc1SCC(=O)N1CCCCC1 | -21.5 | -11.3 | -17.6 | -1.2 | 0.9 | -15.1 | -2.7 | i
NC(CSS(=O)(=O)O)=NCCC12CC3CC(CC(O)(C3)C1)C2 | nt | 3.4 | nt | -0.5 | 5.5 | -18.4 | -1.7 | i
CCN1CCN(c2nc3c(C)cccn3c(=O)c2/C=C(\C#N)S(=O)(=O)c2ccc(Cl)cc2)CC1 | 7.5 | 13.3 | nt | -6.1 | -2.8 | -16.9 | 4.0 | i
Nc1ccc2nc(-c3ccc(Cl)cc3)[nH]c2c1 | -67.8 | 22.5 | 2.8 | 2.3 | -4.1 | 20.7 | 9.7 | i
COc1ccc(CC(=O)NCC(=O)NCc2cc(=O)n(C)c(=O)n2C)cc1 | -10.0 | -3.0 | -14.5 | -1.1 | 2.6 | -5.0 | -12.4 | i
CCNC(=O)COC(=O)c1cc(-c2ccccc2)nn1-c1ccccc1 | 15.8 | -14.2 | nt | -0.5 | 2.7 | 1.9 | -15.2 | i
N#Cc1cc([N+](=O)[O-])ccc1NC(=O)COC(=O)C1CC2CCCC(C1)C2=O (stereo not drawn) | -2.3 | nt | nt | 0.5 | 4.1 | -2.2 | nt | i
O=C(CSc1nccc(-c2cccs2)n1)Nc1ccccc1 | 5.2 | -2.8 | nt | -0.8 | -3.8 | -2.7 | -7.2 | i
CCCCn1c(N)c(N(CCOC)C(=O)COC(=O)Cc2cccc(OC)c2)c(=O)[nH]c1=O | nt | nt | nt | 4.6 | 2.2 | 1.5 | nt | i
COc1ccc(Cl)cc1C(=O)Nc1nc(C)cc(C)n1 | -56.6 | 11.3 | -8.2 | -0.5 | 2.3 | nt | 11.6 | i
O=C(c1ccc2c(c1)OCO2)N(c1ccccc1)C1C=CS(=O)(=O)C1 (stereo not drawn) | nt | -1.2 | -5.1 | 2.5 | 9.2 | 5.3 | -0.7 | i
Cc1ccc(OCC(=O)NCCN2CCCC2)cc1 | -71.3 | 1.3 | -7.7 | nt | nt | 7.2 | -8.2 | i
COc1cccc(C=NCCNC(=O)c2nonc2N)c1O | 10.2 | 5.1 | -20.0 | 5.2 | 4.3 | nt | -2.5 | nt
CCOC(=O)C1C(=O)OC2(CCCCC2)C1C(=O)OCC (stereo not drawn) | nt | 9.5 | 11.6 | 2.4 | 0.4 | -1.2 | 6.6 | i
COc1ccc(N(C(=O)C2COc3ccccc3O2)C(C(=O)NC2CCCCC2)c2ccccc2)cc1OC (stereo not drawn) | 9.9 | 4.7 | -22.0 | -29.1 | -22.4 | -2.4 | 5.2 | i
CNC(=O)CN1C(=O)NC2(CCc3ccccc3C2)C1=O (stereo not drawn) | 4.9 | -11.6 | -27.5 | 1.3 | 5.5 | -4.2 | 2.5 | nt
Cc1ccc(-c2c[n+](CC(=O)c3ccc(Br)cc3)c3n2CCCCC3)cc1 | 35.4 | 15.8 | nt | -22.8 | -28.8 | -8.4 | -1.4 | i
CCOC(=O)C1(C)C(=O)CC2c3nc4ccccc4cc3CN2C1=O (stereo not drawn) | -9.0 | nt | -29.1 | 48.5 | 51.5 | nt | nt | nt
Cc1ccc(OCC(=O)Nc2ccccc2-c2ccccc2)cc1 | nt | 7.2 | -8.0 | 21.0 | -4.1 | 12.5 | -0.7 | i
CCOC(=O)N1CCN(C(=O)c2cc(Cl)c(Cl)cc2C(=O)O)CC1 | nt | -4.9 | nt | 6.8 | 7.1 | 4.4 | -6.4 | i
CC(C)c1ccc(-c2nc3ccccc3s2)cc1 | 24.5 | 2.7 | nt | -5.3 | -2.4 | 31.8 | 4.8 | i
O=C(NCc1ccc2c(c1)OCO2)C1CCC(=O)N1C1CCCC1 (stereo not drawn) | 1.4 | -2.7 | nt | -2.2 | -0.2 | -4.5 | -11.6 | i
COc1ccc(NC(=O)C(c2ccc(OC)cc2)N(C)C(=O)Cc2cccs2)cc1 (stereo not drawn) | nt | 2.8 | nt | -11.7 | -12.1 | -12.3 | -8.2 | i
O=C(COc1ccc(F)cc1)N1CCc2ccccc2C1 | 7.8 | -0.4 | -8.0 | -0.2 | 2.9 | -6.2 | -9.1 | i
CCn1c(SCC(=O)NC(C)(C)C)nnc1-c1ccncc1 | -8.7 | 3.6 | nt | 2.9 | -3.0 | -8.2 | 3.8 | nt
CCCCc1c(C)nc2c(OC)cccc2c1SCC(=O)O | -107.0 | 4.3 | nt | -2.2 | -2.5 | -18.3 | -1.9 | i
CCOc1ccc(CN2CCNC(=O)C2CC(=O)NCC2CCOCC2)cc1 (stereo not drawn) | 4.0 | 4.1 | 3.6 | -3.8 | 2.8 | 2.8 | 10.7 | i
COCCN(C(=O)CCC(=O)Nc1ccccn1)C(C(=O)NC(C)C)c1ccc(Cl)cc1 (stereo not drawn) | 1.4 | 2.8 | -16.3 | 2.1 | 4.5 | -3.8 | -5.2 | nt
COc1ccc(S(=O)(=O)N2CCOCC2)cc1NC(=O)C1COc2ccccc2O1 (stereo not drawn) | nt | nt | -8.0 | 1.7 | 1.1 | -13.0 | nt | i
CC(=O)NC1C(OCc2ccccc2)OC2COC(C)(C)OC2C1O (stereo not drawn) | -10.1 | -9.3 | -19.0 | -1.6 | 2.1 | -27.4 | -0.9 | i
Cc1ccc(C(=O)N/C(=C/c2ccco2)C(=O)NCc2ccco2)cc1 | -2.6 | 17.7 | -1.8 | -4.7 | 2.3 | 11.1 | 23.5 | i
COc1ccccc1N1C(=O)C2C(C(=O)c3ccccc3)=NN(c3ccccc3OC)C2C1=O (stereo not drawn) | 4.9 | ? | nt | -49.1 | -1.2 | -14.2 | ? | i
CCOc1cc(C2NC(=O)NC2=O)ccc1O (stereo not drawn) | -2.3 | -8.6 | nt | -1.4 | 0.3 | -5.9 | -0.4 | i
COCc1c(Br)c(C)nc(OCC(=O)O)c1C#N | -32.9 | -0.8 | -12.7 | 0.6 | -0.2 | -7.1 | -1.4 | i
O=C1NC(c2ccccc2)(C(F)(F)F)SC2=CCCCCN12 (stereo not drawn) | -19.1 | 8.6 | -11.6 | 0.6 | -1.3 | -12.5 | -2.3 | i
COc1ccc(NC(=O)c2cc(Br)c(Br)s2)cn1 | -22.6 | -9.3 | -3.2 | -2.7 | -2.0 | 2.6 | 15.8 | i
COc1ccc(S(=O)(=O)N2CCc3ccccc3C2)cc1 | -0.1 | 0.9 | nt | -0.1 | -2.9 | 4.7 | -4.6 | i
Cn1c(=O)c2c(nc(N3CCOCC3)n2CCNC2=NCCC2)n(C)c1=O | -35.8 | nt | -10.8 | 2.1 | 6.0 | -3.5 | nt | i
Cc1cc(C)c(NC(=O)CSc2nncn2-c2cccnc2)c(C)c1 | -1.4 | 6.7 | nt | -0.1 | 4.6 | -11.9 | -3.5 | i
CCOC(=O)CNc1c(-c2ccc(O)cc2)nc2ccccn12 | 0.8 | 16.1 | -17.3 | 5.9 | 6.7 | -9.6 | 2.8 | i
CCCn1nc(Oc2nc(NCC)nc(NCC)n2)ccc1=O | -27.1 | -6.8 | -26.4 | 7.4 | 5.2 | 8.1 | -4.1 | i
Cn1nnnc1Sc1ncnc2scc(-c3cccc4ccccc34)c12 | 42.1 | nt | -30.9 | -4.1 | -2.2 | nt | nt | nt
Cc1cccc(NS(=O)(=O)c2ccc(C(=O)N3CCN(c4ccccc4O)CC3)cc2)c1C | 4.7 | -9.5 | -8.7 | 4.3 | -9.2 | -7.3 | 17.0 | nt
Fc1ccc(NCc2nnc(SCc3nnc(-c4ccccc4)o3)n2CC2CCCO2)cc1 (stereo not drawn) | -3.6 | 7.9 | nt | 4.7 | -4.4 | -6.5 | -7.2 | i
CCN(CC(=O)Nc1c(F)cccc1F)C(=O)CSc1nc2ccccc2o1 | 0.5 | nt | nt | 2.4 | 1.6 | -4.1 | nt | i
O=C1C2C(c3cccc(/C=C/c4ccccc4)c3)CC=CC2C(c2ccc3ccccc3c2)N1Cc1ccccc1 (stereo not drawn) | 17.4 | -1.8 | -25.2 | 1.1 | -8.6 | 2.9 | -2.8 | i
O=c1c2ccc([N+](=O)[O-])c3cccc(c32)c2nc3ccccc3n12 | nt | 10.6 | nt | nt | nt | -8.9 | 12.6 | i
Cn1nc(C(F)(F)F)c(-c2ccc(F)cc2)c1NC(=O)Nc1ccc(F)cc1 | 10.9 | -12.7 | 3.5 | 6.1 | 0.3 | 20.5 | -12.1 | i
CC(C)Oc1cccc(C(=O)C2CCCN(Cc3ccc4nonc4c3)C2)c1 (stereo not drawn) | 14.3 | -2.5 | nt | -1.0 | -11.4 | 36.9 | -2.9 | i
N#Cc1ccc(-c2nc3ccc(Br)cn3c2Cc2ccccc2C(F)(F)F)cc1 | -16.6 | nt | -12.1 | 0.3 | -6.2 | nt | nt | nt
COc1ccc(C(CNC(=O)C2CCN(S(=O)(=O)c3ccc(F)cc3)CC2)N(C)C)cc1 (stereo not drawn) | -0.9 | -3.1 | -26.1 | -5.9 | -4.4 | -2.2 | -6.0 | i
CCN1CCN(S(=O)(=O)c2ccc(Cl)c(C(=O)NC(C)c3ccccc3Cl)c2)CC1 (stereo not drawn) | -13.2 | nt | -5.7 | 2.8 | 4.4 | 1.9 | nt | i
CN(C)CCNC(=O)c1cc2c(s1)-c1ccc(Cl)cc1SC2 | -14.4 | -5.1 | -5.0 | -43.2 | -38.5 | 102.3* | -16.3 | i
Cc1ccccc1CSCCNC(=S)Nc1ccccc1 | 5.0 | -9.1 | nt | 5.8 | -0.4 | -4.6 | -2.3 | i

For reference, 2 of the compounds above:
SMILES | HIV Env fusion | PABP FP inh | Yeast UUG start | MT1-MMP act inh | MT1-MMP act inh RFP | CSC inhib | eIF4H FP inh | Rce1 inh
CCCn1nc(Oc2nc(NCC)nc(NCC)n2)ccc1=O | -27.1 | -6.8 | -26.4 | 7.4 | 5.2 | 8.1 | -4.1 | i
Cn1nnnc1Sc1ncnc2scc(-c3cccc4ccccc34)c12 | 42.1 | nt | -30.9 | -4.1 | -2.2 | nt | nt | nt
